Screening data deposited in PubChem BioAssay by National Center for Advancing Translational Sciences (NCATS).
Methyltransferases = Primary Screen for Target Class Profiling of Small Molecule Inhibitors of Methyltransferases; purified enzyme, MTase-Glo SAH luminescence; active compounds read low; calls only at 40 µM; hit rate 3.9% among 25,000; AID 1745853, 2022; active = -50% or lower on at least one of six enzymes; inconclusive = the cases between; inactive = as a rule above -30% on all six;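 further: enzymes were COMT GAMT GNMT HNMT NNMT and PNMT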
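Each enzyme was reacted with SAM and its substrate, with compounds tested once at 40 uM; SAH formed was read by MTase-Glo luminescence.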
Calls only; i = inactive; ? = inconclusive; + = active, no number. On the % scale 0 is the no-effect control and ±100 the full control effect. A portion of the library. The share of hits here may be higher or lower than overall.

SMILES | Methyltransferases
CC1(C)CC[C@]2(C(=O)O[C@@H]3O[C@H](CO)[C@@H](O)[C@H](O)[C@H]3O)CC[C@]3(C)C(=CCC4[C@@]5(C)C[C@@H](O)[C@H](O)C(C)(C)C5[C@H](O)C[C@]43C)[C@@H]2[C@@H]1O (stereo partly drawn) | i
COc1ccc(CNc2nc3c(S(=O)(=O)c4ccc(C)cc4)nnn3c3ccccc23)cc1 | i
COc1ccc(-n2ncc3c2CC(C)(C)CC3NC(=O)c2cc(C)[nH]n2)cc1 (stereo not drawn) | i
Cc1oc2c(c1C(=O)N1CCOCC1)CN(C(=O)c1ccncc1)CC2 | i
Cc1cccc(CN2CC(Oc3cccc(C(=O)NCC4CC4)c3)C2)c1 | i
CC1(C(=O)NC2CCCC2)Cn2c(cc3sccc32)C(=O)N1Cc1cccs1 (stereo not drawn) | i
CN(C)c1ccc2ncc(Nc3ccc(Cl)cn3)n2n1 | i
CC(C)Cn1c(=O)c2ccccc2n2c(CCC(=O)N3CCN(c4ccccc4)CC3)nnc12 | ?
O=C(Cn1ccc2cc(S(=O)(=O)N3CCCCC3)ccc21)NCc1ccc(F)cc1 | i
COc1cc(OC)cc(-c2onc(C)c2C(=O)NCCC(c2ccccc2)c2ccccc2)c1 | i
COc1ccc(CN2C(=O)c3cc4occc4n3CC2(C)C(=O)NC2CCCCCC2)cc1 (stereo not drawn) | i
COc1cc(OC)c(N2C(=O)CSc3c(c4ccccc4n3C)C2C(=O)NCc2ccccc2)cc1Cl (stereo not drawn) | i
CCCCC1CCC(c2nc(-c3ccncc3)no2)CC1 (stereo not drawn) | i
COc1cccc(CNC(=O)c2cc3n(n2)CC(C)(C(=O)NC2CCCCCC2)N(C)C3=O)c1 (stereo not drawn) | i
CCCN1C(=O)c2c(C(=O)N3CCN(c4ccccc4)CC3)ncn2CC1(C)C(=O)NCc1ccc(OC)cc1 (stereo not drawn) | i
CCN(CC)CC[C@H]1CN(C(=O)C2CC2)CC[C@H]1CC(=O)O | i
CC1CCCCC1NC(=O)C1(C)Cn2c(cc3sccc32)C(=O)N1CCCc1ccccc1 (stereo not drawn) | i
COc1ccc(CCc2nc3cc(-c4c(C)noc4C)ccc3n2C[C@H](C)N2CCOCC2)cc1Cl | ?
O=C1NC2(CCN(Cc3ccccc3)C2)COc2ccccc21 (stereo not drawn) | i
CC(=O)O[C@@H]1CC2C(C)(C)C(=O)C=C[C@]2(C)C2CC[C@]3(C)C(=CC(=O)[C@@H]3c3ccoc3)[C@@]21C (stereo partly drawn) | i
NCCOCCOCCNC(=O)Cc1ccc(Nc2nc(NCc3ccc(F)cc3)nc(NCC3CCCCC3)n2)cc1 | ?
CC1(C)OC[C@H](NC(=O)Nc2ccc(Br)cc2Br)[C@H](c2ccccc2)O1 | i
CCC(C)NC(=O)c1ccc2c(=O)n(C)c3nn(CC(=O)c4ccc(OC)cc4)c(=O)n3c2c1 (stereo not drawn) | i
CCC(C)NC(=O)c1ccc2c(=O)n(C)c3nnc(SCC(=O)Nc4cccc(Cl)c4)n3c2c1 (stereo not drawn) | i
COc1cccc(-c2cc(-c3cccs3)nc3c(C)noc23)c1 | i
CC(C)NC(=O)NC[C@H]1OC[C@@H](NCc2ncc[nH]2)[C@@H]1O | i
COc1ccccc1CNC(=O)c1cc2n(n1)CC(C)(C(=O)NCc1ccc(F)cc1)N(C)C2=O (stereo not drawn) | i
CCC(C)NC(=O)c1ccc2c(=O)n(CCC(C)C)c3nn(Cc4cccc(C)c4)c(=O)n3c2c1 (stereo not drawn) | i
COc1ccccc1Nc1nc(-c2sc(NC(C)=O)nc2C)cs1 | ?
Cc1cc(C)nc(NS(=O)(=O)c2ccc(NC(=S)NC(=O)COc3ccc(Br)cc3Cl)cc2)n1 | ?

A second format for 3 compounds above.
| Compound | Methyltransferases |
| --- | --- |
| COc1ccccc1CNC(=O)c1cc2n(n1)CC(C)(C(=O)NCc1ccc(F)cc1)N(C)C2=O (stereo not drawn) | i |
| COc1ccccc1Nc1nc(-c2sc(NC(C)=O)nc2C)cs1 | ? |
| CC1(C)OC[C@H](NC(=O)Nc2ccc(Br)cc2Br)[C@H](c2ccccc2)O1 | i |

(listing goes on)
SMILES | Methyltransferases
COc1ccc(-c2cc3n(n2)CC(C)(C(=O)NCc2ccccc2)N(Cc2ccccc2Cl)C3=O)cc1 (stereo not drawn) | i
CC1CCC(NC(=O)C2(C)Cn3c(cc4occc43)C(=O)N2Cc2ccco2)CC1 (stereo not drawn) | i
Cc1ccc([S+](=O)([O-])N2CCCCC23Cc2ccccc2NC3=O)cc1 (stereo not drawn) | i
O=C(CCn1ccc2cc(S(=O)(=O)N3CCCCC3)ccc21)NCc1ccc(F)cc1 | i
CC(C)CNC(=O)c1ccc2c(=O)n(Cc3ccccc3)c3nn(C)c(=O)n3c2c1 | i
CCc1cc2c(cc3n2CC(C)(C(=O)NC2CCC(C)CC2)N(c2cccc(C)c2C)C3=O)s1 (stereo not drawn) | i
Cc1ccccc1CNC(=O)CCn1ccc2cc(S(=O)(=O)N3CCCCC3)ccc21 | i
Cc1cc(C(=O)NCC2CCCN(Cc3nnc(-c4cccnc4)o3)C2)no1 (stereo not drawn) | i
CCCn1c(=O)c2ccccc2n2c(=O)n(CC(=O)Nc3ccc(C)c(C)c3)nc12 | i
COc1ccc(C(=O)N2CCN(CCCn3nc4n(c3=O)CCCC4)CC2)cc1 | i
Cc1ccc(C)c(C(=O)Cn2nc3n(CC(C)C)c(=O)c4ccccc4n3c2=O)c1 | i
COc1ccc(NC(=O)N2C[C@@H]3C[C@H](C2)c2ccc(NC(=O)c4ccccn4)c(=O)n2C3)cc1 | i
COc1ccc(CNC(=O)c2ncn3c2C(=O)N(C2CC2)C(C)(C(=O)NCc2cccc(C)c2)C3)cc1 (stereo not drawn) | i
COc1ccc(NC(=O)N[C@H]2[C@H](O)[C@@H](N(C)CCc3ccccn3)[C@@H]3OC[C@H]2O3)cc1 | i
Cn1c(=O)n(C)c2cc(S(=O)(=O)N3CCN(c4ccc(F)cc4)CC3)ccc21 | i
CC(=O)NC(CO)C(=O)N1CCc2[nH]nc(-c3ccc(F)c(F)c3)c2C1 (stereo not drawn) | i
CC1(C)CCC2(C(=O)OC3OC(COC4OC(CO)C(O)C(O)C4O)C(O)C(O)C3O)CCC3(C)C(=CCC4C5(C)CCC(O)C(C)(C(=O)O)C5CCC43C)C2C1O (stereo not drawn) | +
CCCCCNC(=O)c1ccc2c(=O)nc3c(-c4ccccc4)n[nH]n3c2c1 | i
COc1ccc(N(C(=O)c2ccccc2)S(=O)(=O)c2ccc3c(c2)n(C)c(=O)n3C)cc1 | i
COc1ccc2c(c1)c(-n1cccc1)c1n2CC(C)(C(=O)NC2CCCCC2)N(Cc2ccc(Cl)cc2)C1=O (stereo not drawn) | i
C=C1C[C@]23C[C@H]1CC[C@H]2[C@@]12CC[C@H](O)[C@@](C)(C(=O)O1)[C@H]2[C@@H]3C(=O)O | i
COC(=O)CCc1cc2ccoc2c(OC)c1O[C@@H]1O[C@H](CO)[C@@H](O)[C@H](O)[C@H]1O | i
COC1/C=C/C(C)(O)C(SCC(N)C(=O)O)CC(=O)OC(C)C(C)CC/C=C/1C (stereo not drawn) | i
CC(=O)Nc1c2n(c3ccccc13)CC(C)(C(=O)NC1CCCCC1)N(C1CCCCCC1)C2=O (stereo not drawn) | i
NC(=O)CN1CCC(c2nc(-c3cn4ccccc4n3)no2)CC1 | i
CCOCCCN1C(=O)c2c(NC(C)=O)c3cc(F)ccc3n2CC1(C)C(=O)NC1CCCC1 (stereo not drawn) | i
CCCCN(CC)CCN1C(=O)c2ccc(-c3ccco3)n2CC1(C)C(=O)NC1CCCCCCC1 (stereo not drawn) | i
CC1(C(=O)NC2CCCCC2)Cn2c(ccc2-c2ccco2)C(=O)N1CCCN1CCCCC1 (stereo not drawn) | i
COC(=O)CC(O)CC(O)/C=C/c1c(C)ccc2c1C(OC(C)=O)CC(C)C2 (stereo not drawn) | i
CNC(=O)[C@@H]1CN(C(=O)NCc2ccc(C)cc2)C[C@H]1c1nc(C)no1 | i
C=C1C(=O)O[C@@H]2C[C@H](C)[C@@H]3CC(=O)C(C)=C3C[C@H]12 | i
Cn1nc(C2CCCNC2)c2c(C(=O)NC3CC3)cc(C3CC3)nc21 (stereo not drawn) | i
O=C1[C@H]2CN(S(=O)(=O)c3ccc(F)cc3)CCN2C(=O)N1CCO | i
CC(C)CCn1c(=O)c2ccccc2n2c(=O)n(CC(=O)NCc3ccccc3Cl)nc12 | i
CN(Cc1ccccc1)C(=O)c1ncn2c1C(=O)N(C1CC1)C(C)(C(=O)NCc1ccccc1Cl)C2 (stereo not drawn) | i
CCCn1c(=O)c2ccccc2n2c(SCc3cc(C)ccc3C)nnc12 | i
COc1ccc(-c2n[nH]n3c2nc(=O)c2ccc(C(=O)NCc4ccc(OC)cc4OC)cc23)cc1 | i
CCOC(=O)c1cc2n(n1)CC(C)(C(=O)NCCCOC)N(c1cc(C)ccc1C)C2=O (stereo not drawn) | i
CCCn1c(=O)c2ccccc2n2c(=O)n(CC(=O)c3ccc(Br)cc3)nc12 | i
CCc1nnc([C@@H]2CC(F)(F)CN2C(=O)c2ocnc2C)o1 | i
COc1ccc(OC)c(Nc2nc3c(S(=O)(=O)c4ccc(F)cc4)nnn3c3ccccc23)c1 | i
CC(C)(N)c1ccc(-c2nc3ccccc3nc2-c2ccccc2)cc1 | i
Cc1nnc2n(-c3cccc(F)c3)c(=O)c3ccc(C(=O)NCc4ccc5c(c4)OCO5)cc3n12 | i
CCCN(CCc1ccsc1)C1CCc2c(O)cccc2C1 (stereo not drawn) | i
C[C@@H]1O[C@@H](O[C@H]2[C@@H]3C=CO[C@@H](O[C@@H]4O[C@H](CO)[C@@H](O)[C@H](O)[C@H]4O)[C@@H]3[C@@]3(CO)O[C@@H]23)[C@H](OC(=O)/C=C/c2ccc(O)c(O)c2)[C@H](O)[C@H]1O | i
O=C(NCc1cccnc1)c1cc(CN2CCC(Cc3ccccc3)CC2)on1 | i
CCC(C)NC(=O)c1ccc2c(=O)n(C)c3nnc(SCC(=O)Nc4cccc(F)c4)n3c2c1 (stereo not drawn) | i
Cc1ccc(F)cc1S(=O)(=O)N[C@@H]1CCN(Cc2ccc(OC(C)C)cc2)C1 | i
COc1nccnc1NC1CCN(C(=O)c2ccco2)CC1 | i
COc1ccccc1N1CCN(C(=O)CCc2nnc3n(CCc4ccccc4)c(=O)c4ccccc4n23)CC1 | i
Cc1ccc(Cn2c(=O)c3ccccc3n3c(-c4cc(Br)cs4)nnc23)cc1 | i
COc1ccc(Cn2c(=O)c3ccccc3n3c(-c4cccc(Cl)c4)nnc23)cc1 | i
CN(CC1CCOC1)S(=O)(=O)Cc1cccc(Cl)c1 (stereo not drawn) | i
CCCN1C(=O)c2c(C(=O)NCc3ccc(OCC)c(OC)c3)ncn2CC1(C)C(=O)NC1CCCC1 (stereo not drawn) | i
C[C@]1(OC(=O)/C=C/c2ccc(O)cc2)C[C@@H](O)[C@]2(O)C=CO[C@@H](O[C@@H]3O[C@H](CO)[C@@H](O)[C@H](O)[C@H]3O)C12 (stereo partly drawn) | i
CSc1ccc(CCNC(=O)c2cc3n(n2)CC(C)(C(=O)NC2CCCC2)N(C)C3=O)cc1 (stereo not drawn) | i
COc1ccc(-c2n[nH]n3c2nc(=O)c2ccc(C(=O)NCc4ccc5c(c4)OCO5)cc23)cc1 | i
CCCN1C(=O)c2c(C(=O)NCc3cccc(Br)c3)ncn2CC1(C)C(=O)NC1CCCC1 (stereo not drawn) | i
CS(=O)(=O)c1ccc(CN2CCC(C(O)c3ccccn3)CC2)cc1 (stereo not drawn) | i
CCC(C)NC(=O)c1ccc2c(=O)n(C)c3nn(CC(=O)Nc4cccc(C)c4)c(=O)n3c2c1 (stereo not drawn) | i

Structural class, those above containing an aryl thioether with sulfur outside any ring
SMILES | Methyltransferases
CCC(C)NC(=O)c1ccc2c(=O)n(C)c3nnc(SCC(=O)Nc4cccc(Cl)c4)n3c2c1 (stereo not drawn) | i
CCCn1c(=O)c2ccccc2n2c(SCc3cc(C)ccc3C)nnc12 | i
CCC(C)NC(=O)c1ccc2c(=O)n(C)c3nnc(SCC(=O)Nc4cccc(F)c4)n3c2c1 (stereo not drawn) | i
CSc1ccc(CCNC(=O)c2cc3n(n2)CC(C)(C(=O)NC2CCCC2)N(C)C3=O)cc1 (stereo not drawn) | i

Molecules above containing a COOH group, in the order listed:
SMILES | Methyltransferases
CCN(CC)CC[C@H]1CN(C(=O)C2CC2)CC[C@H]1CC(=O)O | i
CC1(C)CCC2(C(=O)OC3OC(COC4OC(CO)C(O)C(O)C4O)C(O)C(O)C3O)CCC3(C)C(=CCC4C5(C)CCC(O)C(C)(C(=O)O)C5CCC43C)C2C1O (stereo not drawn) | +
C=C1C[C@]23C[C@H]1CC[C@H]2[C@@]12CC[C@H](O)[C@@](C)(C(=O)O1)[C@H]2[C@@H]3C(=O)O | i
COC1/C=C/C(C)(O)C(SCC(N)C(=O)O)CC(=O)OC(C)C(C)CC/C=C/1C (stereo not drawn) | i

Going on with the list:
SMILES | Methyltransferases
CCOC(=O)c1cc2n(n1)CC(C)(C(=O)NC1CCCC1)N(Cc1ccc(CC)cc1)C2=O (stereo not drawn) | i
O=C(N[C@H]1C[C@@H](CO)N(CC2CCCCC2)C1)c1cccnc1 | i
CCC(CC)Nc1ncnc2c1CN(C1CCC1)C(=O)CN2C | i
CCN1CCN(C(=O)c2cc3n(n2)CC(C)(C(=O)NCc2ccccc2)N(C)C3=O)CC1 (stereo not drawn) | i
Cc1ccc(Cl)cc1N1CCN(C(=O)CCc2nnc3n(CC(C)C)c(=O)c4ccccc4n23)CC1 | i
CCCn1c(=O)c2ccc(C(=O)NCC(C)C)cc2n2c(=O)n(Cc3ccccc3)nc12 | i
C[C@H](O)c1c(-c2ccc(F)cc2)noc1C(=O)N1CCCC1 | ?
CCOc1ccc(C2c3cccn3-c3sc4c(c3CN2C(=O)Nc2ccc(F)cc2F)CCCC4)cc1 (stereo not drawn) | i
CC(C)c1ccc(NS(=O)(=O)c2ccc3c(c2)n(C)c(=O)n3C)cc1 | i
CC1CCCCC1NC(=O)Cn1c(=O)oc2cc(S(=O)(=O)N3CCCC3)ccc21 (stereo not drawn) | i
O=C(c1ccc2c(=O)nc3c(-c4cccc(F)c4)n[nH]n3c2c1)N1CCN(c2ccccc2F)CC1 | i
